# High-throughput results deposited in PubChem BioAssay by SRMLSC.
# H5N1 antiviral – MDCK cell protection from H5N1 avian flu; cytopathic effect, luminescence, 72 h; hits give high values; no value below 0 was filed and about half of the inactive calls have no number; reference of the scale not given here; inhibition, % at 50 µM; 96,000 tested, 0.07% active; AID 740; in the data active means inhibition above about 25%
# * marks the source's active call; other numbers are inactive results; i = inactive. Only part of the results is shown; count on the stated rates, not on these rows.
# The first 2 entries, ahead of the listing:
SMILES,H5N1 antiviral
COc1ccc(CCNS(=O)(=O)c2ccc(S(=O)(=O)N3CCCC3)cc2)cc1OC,1.0
CC1=CC(C)(C)Nc2ccc(OS(=O)(=O)c3ccc(C)cc3)cc21,1.0

# This part in full, previewed entries included:
SMILES,H5N1 antiviral
COc1ccc(CCNS(=O)(=O)c2ccc(S(=O)(=O)N3CCCC3)cc2)cc1OC,1.0
CC1=CC(C)(C)Nc2ccc(OS(=O)(=O)c3ccc(C)cc3)cc21,1.0
CCn1c(SCc2ccccc2)nnc1-c1ccc(S(=O)(=O)N2CCCCC2)cc1,0.2
S=c1[nH]nc(-c2ccncc2)n1Cc1ccco1,0.9
CN(C)/C=C(\C=N\OCc1ccc(Cl)cc1Cl)C(=O)Nc1ccc(Cl)c(Cl)c1,1.8
O=C(Cn1cccc1C(=O)c1ccccc1)NCCN1CCCCCC1,0.8
Cc1cc(=O)oc2c(CN(C)Cc3ccccc3)c(O)ccc12,0.2
O=C(NCCO)/C(=C/c1ccc(Br)cc1)NC(=O)c1cccs1,0.2
Cc1ccc2nc(N/N=C\c3ccc([N+](=O)[O-])o3)nc(-c3ccccc3)c2c1,i
CCOC(=O)c1c(N)nn(C(C)=O)c1-c1ccccc1,7.5
CCOC(=O)Cn1c(=O)oc2cc(S(=O)(=O)Nc3cc(Cl)ccc3OC)ccc21,i
O=C1CCCN1CCC1CCN(C2CC(=O)N(Cc3ccc(N4CCCC4=O)cc3)C2=O)CC1 (configuration not stated),0.5
CSCSC1=C(C#N)C(c2ccc(Cl)cc2)C(C(C)=O)=C(C)N1 (configuration not stated),0.4
CNC(C)Cc1ccccc1Sc1ccc(O)cc1 (configuration not stated),0.1
COc1ccc(OC)c(NC(=O)COC(=O)c2ccc(S(=O)(=O)N3CCOCC3)cc2)c1,i
CN1C2CCC1CC(OC(=O)CCN1CCCC1)C2 (configuration not stated),i
Cn1c(Cn2c(=O)sc3ccccc32)nnc1SCC(=O)N1CCCc2ccccc21,1.4
COc1ccc(-c2cn3c(C)c(C(=O)Nc4cc(NC(C)=O)ccc4OC)sc3n2)cc1,i
COc1cccc(C(=O)COC(=O)C(C)N2C(=O)C3C4C=CC(C4)C3C2=O)c1 (configuration not stated),0.3
COCCNC(=O)CN1C(=O)CC(C)(C)S(=O)(=O)c2ccccc21,0.4
COc1cccc(C(=O)NN2C(=O)C3C4C=CC(O4)C3C2=O)c1 (configuration not stated),1.5
COCCN(CC(=O)NCc1ccc(F)cc1)C(=O)CCC(=O)Nc1ccccn1,0.1
O=C1NC(c2ccncc2)Nc2ccccc21 (configuration not stated),i
C=CCOC(=O)C1=C(C)NC(SCC)=C(C#N)C1c1ccc(Cl)cc1 (configuration not stated),2.9
CCn1c(SCC(=O)OC2CCCCC2)nnc1-c1ccncc1,0.9
CCN(Cc1cc2ccccc2[nH]c1=O)C(=O)C(C)C,1.1
CCOC(=O)c1cc(C(O)(C(F)(F)F)C(F)(F)F)c(/N=C/N(C)C)o1,0.1
O=C(O)C1CC(=O)N(Cc2ccc(F)cc2)C1 (configuration not stated),i
Cc1c(N=C2SCC(=O)N2c2c(C)n(C)n(-c3ccccc3)c2=O)c(=O)n(-c2ccccc2)n1C,i
CCOC(=O)C1CCN(CC(=O)Nc2c(C(=O)OC)[nH]c3cccc(Cl)c23)CC1,0.2
O=C(COC(=O)CCS(=O)(=O)c1ccc(Cl)cc1)Nc1ncc(Cl)cc1Cl,1.6
Cn1c(=O)c2c(nc(CN3CCN(c4ccccc4F)CC3)n2CCN2CCOCC2)n(C)c1=O,0.8
Cc1[nH]c2ccccc2c1C(=O)CN1CCCCC1CCO (configuration not stated),i
COc1c(C)cc(S(=O)(=O)N2CCCC2)c(C)c1C,1.5
Cc1cccc(-c2noc(-c3ccccc3C(=O)NCC3CCCO3)n2)c1 (configuration not stated),i
CCN(CC)CCCN1C(=O)C(=O)/C(=C(/O)c2cc(C)ccc2C)C1c1cccnc1 (configuration not stated),i
CSc1ccc(Cl)c(C(=O)OCC(=O)N2CCOCC2)c1,0.4
CCC(C)(C)n1nnnc1CN1CCN(c2nc3ccc(C)cc3cc2C#N)CC1,i
CC(=O)N1C=CN(C(C)=O)C(c2cn(C)c3ccccc23)C1c1cn(C)c2ccccc12 (configuration not stated),i
COc1ccc(-n2nnnc2SCC(=O)Nc2cccc(NC(C)=O)c2)cc1OC,0.3
Nn1c(SCc2ccccc2)nnc1-c1ccccn1,0.3
COc1ccc(C(C)(C)C)cc1S(=O)(=O)N1CCN(C)CC1,0.7
CCCCC(=O)OCC(=O)Nc1ccc(OC(F)F)cc1,i
Cc1sc2nc(SCC(=O)c3cccs3)n(Cc3ccco3)c(=O)c2c1C,i
CN=C(Nc1ccc(Cl)cc1)c1cccc(C(F)(F)F)c1,2.9
CCCCCc1ccc(CC(=O)Nn2c(C)nc3ccccc3c2=O)cc1,i
O=C(CCc1ccc(CCC(=O)c2cccs2)s1)c1cccs1,i
COc1ccccc1N(CC(=O)N1CCCCCC1)S(C)(=O)=O,i
CSc1nc2c(c(=O)n1-c1ccccc1)SCC2,0.3
COc1cc(=O)n(C)c2cc(N(C)C)ccc12,i

# 3 compounds drawn at random from the list so far, as already listed:
SMILES,H5N1 antiviral
CCOC(=O)c1c(N)nn(C(C)=O)c1-c1ccccc1,7.5
S=c1[nH]nc(-c2ccncc2)n1Cc1ccco1,0.9
CSCSC1=C(C#N)C(c2ccc(Cl)cc2)C(C(C)=O)=C(C)N1 (configuration not stated),0.4

# (more compounds)
SMILES,H5N1 antiviral
Cc1cc(O)c(NC(=O)c2ccco2)cc1C,1.6
O=C(O)COc1ccc2c(c1)CCCC2,0.1
Cc1ccc(NC(=O)N(Cc2ccco2)C(C)c2ccco2)cc1C (configuration not stated),i
N#Cc1cc([N+](=O)[O-])c(-n2nnc3ccccc32)c([N+](=O)[O-])c1,1.3
O=C(Nc1nc2ccccc2n1CCN1CCCC1)C1CCCCC1,i
CCOC(=O)c1cnn(CCOC(=O)C2CC2)c1NC(=O)C1CC1,i
O=C(O)CCNC(=O)c1cncc(Br)c1,i
CS(=O)(=O)N(CC(=O)N1CCN(Cc2ccc3c(c2)OCO3)CC1)c1ccc2c(c1)OCO2,1.1
O=C(CSc1nnc(-c2ccccc2)o1)c1nnc(-c2ccccc2)o1,i
C=CCNc1nc(C2(C)CC3(CC(C)OC3=O)C(=O)O2)cs1 (configuration not stated),i

# The closing 7 records of the section before come first, to join the parts:
SMILES,H5N1 antiviral
N#Cc1cc([N+](=O)[O-])c(-n2nnc3ccccc32)c([N+](=O)[O-])c1,1.3
O=C(Nc1nc2ccccc2n1CCN1CCCC1)C1CCCCC1,i
CCOC(=O)c1cnn(CCOC(=O)C2CC2)c1NC(=O)C1CC1,i
O=C(O)CCNC(=O)c1cncc(Br)c1,i
CS(=O)(=O)N(CC(=O)N1CCN(Cc2ccc3c(c2)OCO3)CC1)c1ccc2c(c1)OCO2,1.1
O=C(CSc1nnc(-c2ccccc2)o1)c1nnc(-c2ccccc2)o1,i
C=CCNc1nc(C2(C)CC3(CC(C)OC3=O)C(=O)O2)cs1 (configuration not stated),i
O=C(O)CSCC(=O)Nc1ccc(C2CCCCC2)cc1,i
Cc1sc2nc(C3CC3)nc(NCCNS(C)(=O)=O)c2c1C,i
COC(=O)c1cccc(NC(=O)CN2CCN(Cc3ccccc3)CC2)c1,i
NC(=O)CS(=O)(=O)c1nc2ccccc2n1Cc1ccccc1F,i
CC1(C)CC(CC(=O)O)C(=O)O1 (configuration not stated),i
O=C(CN(C1CCCCC1)S(=O)(=O)c1ccc(F)cc1)NC1CC1,0.3
Cc1ccc(S(=O)(=O)NCCN=C(CN2CCCC2)NS(=O)(=O)c2ccc(C)cc2)cc1,i
O=C(Cc1c(O)c2ccccc2[nH]c1=O)NC1CCCCCCC1,0.1
COc1ccc([N+](=O)[O-])cc1C1NN=C(c2ccccc2O)S1 (configuration not stated),i
COc1ccc(NC(=O)c2cc(-c3cc(C)cc(C)c3O)n[nH]2)cc1Cl,3.1
O=C(CC(c1ccccc1)c1ccccc1O)N1CCCC1 (configuration not stated),1.0
CC(=O)c1cn(CC(=O)Nc2ccccc2C)c2ccccc12,i
COc1ccc2c(c1OC)C(=O)N(c1ccccn1)C2,i
CN(C(=O)CSc1nc(-c2ccccc2)cn1N)C(c1ccccc1)c1ccccc1,0.7
COc1cc(C2N(c3ccccn3)C(=O)C3CCCN32)cc(OC)c1OC (configuration not stated),i
COc1ccc(NC(=O)c2csc(Cc3ccccc3)n2)cc1,i
CC1CCN(C(=S)c2cn(Cc3ccc(F)cc3)c3ccccc23)CC1,2.0
COc1cccc2c(=O)ccoc12,0.4
Clc1ccc(CNc2nnnn2-c2ccccc2)c(Cl)c1,1.1
Cc1ccc(NC(=O)C2(N(C(=O)Cn3nnnc3N)c3ccc(C)cc3)CCCCC2)cc1,i

# Part of the list above in order of length of the SMILES, descending.
SMILES,H5N1 antiviral
CN(C(=O)CSc1nc(-c2ccccc2)cn1N)C(c1ccccc1)c1ccccc1,0.7
CC(=O)c1cn(CC(=O)Nc2ccccc2C)c2ccccc12,i
COc1cccc2c(=O)ccoc12,0.4

# More entries
SMILES,H5N1 antiviral
Cn1c(COc2ccc3ccccc3c2)nnc1SCC(N)=O,1.2
NS(=O)(=O)c1ccc(CNC(=O)NC23CC4CC(CC(C4)C2)C3)cc1,0.4
c1ccc(N2CCCCC2)c(NC2=NCCC2)c1,0.3
Cn1c(C(=O)N2CCCC(C(=O)N3CCN(C(=O)c4ccco4)CC3)C2)cc2sccc21 (configuration not stated),3.1
O=C1C2C3C=CC([C@@H]2C(=O)N1C1CCCCC1)[C@H]1C(=O)N(C2CCCCC2)C(=O)C31 (some centres not stated),i
CCCS(=O)(=O)N1CCCC(C(=O)NCCN(CC)CC)C1 (configuration not stated),i
Cc1nn(Cc2ccc(Cl)cc2)c(C)c1NC(=O)c1noc2c1CCc1ccccc1-2,1.7
CCOc1ccc(N2C(=O)c3cccnc3C2Nc2ccc(C)cc2)cc1 (configuration not stated),1.4
O=C(Nc1cccc(Cl)c1)c1ccncc1,1.8
Cc1ccoc1C(=O)NCc1occc1C(=O)O,i
O=C(CNC(=O)OCc1ccccc1)NCC(=O)N1CCCC1C(=O)OCc1ccccc1 (configuration not stated),i
CCOC(=O)c1c(C)c(C(=O)NC(C)COC)c(C)n1CC (configuration not stated),i
COc1ccc(NC(=S)NCCC(c2ccccc2)c2ccccc2)c(OC)c1,i
COc1ccc2sc(NC(=O)c3ccco3)nc2c1,i
CCOC(=O)CNC(=O)c1nn(-c2ccc(OCC)cc2)c(=O)c2ccccc12,i
CCn1c(SCc2nc3ccccc3[nH]2)nnc1-c1cccs1,2.8
O=C(CCn1c(=O)oc2ccccc21)NCCCN1CCN(c2ccc(F)cc2)CC1,i
O=C(CCn1c(=O)oc2ccccc21)N1CCCCCC1,i
COc1ccc(NC(=O)CC2CCCCC2)cc1OC,0.7
COCCNc1nnc(SCC(=O)N2CCN(S(=O)(=O)c3ccccc3)CC2)s1,0.2
CC(=O)Nc1ccc2ccccc2c1,i
O=C(Nc1cc(C(F)(F)F)ccc1N1CCOCC1)c1cccc(F)c1,i
COCCn1c(SCc2cccnc2)nnc1-c1ccco1,i
Cc1cc(C)cc(N2CC(c3nc4ccccc4n3C)CC2=O)c1 (configuration not stated),2.2
Cc1ccc(S(=O)(=O)N2CCN(CC(=O)NC3CCCc4ccccc43)CC2)cc1C (configuration not stated),1.3
Cc1cc(=O)oc2cc(OCC3CC(c4ccc(Cl)cc4)=NO3)ccc12 (configuration not stated),i
O=C(CSc1nnc(COc2cccc3cccnc23)o1)c1ccc(F)cc1,0.4
Cc1ccc2[nH]c(CCN(C)C)c(CC#N)c2c1,i
COC(=O)C1=C(C)OC(N)=C(C#N)C1c1cc(C)sc1C (configuration not stated),i
C=CCNc1nc2ccccc2nc1NS(=O)(=O)c1cccs1,i
COc1ccccc1S(=O)(=O)Cc1ccc(C(=O)NC(C)c2ccc3c(c2)OCCO3)o1 (configuration not stated),i
CCn1cc(C2=NC(C)(C)CO2)c2ccccc21,i
Cc1ccc(SCc2ccc(C(=O)Nc3cc([N+](=O)[O-])ccc3C)cc2)cc1,i
O=C(NC(Cc1ccccc1)c1ccc2c(c1)OCCCO2)c1ccccc1 (configuration not stated),2.6
Cn1cccc1CNC(=O)Nc1ccc(Cl)c(Cl)c1,i
CCn1c(SCC(=O)Nc2ccc3c(c2)OCO3)nnc1-c1cnccn1,i
C#CC1(O)CC(C)N(C)C(C)C1 (configuration not stated),0.0
O=C1CCC([N+](=O)[O-])C(c2ccc(Cl)cc2Cl)N1 (configuration not stated),i
Fc1ccc(Cl)cc1/C=N/n1cnnc1SCc1ccccc1,i
COc1cccc(C2CC(c3ccc(Cl)cc3)Nc3nc(N)nn32)c1 (configuration not stated),i
c1cc2c(cc1Cn1cnnn1)OCO2,i
CCOc1cc(C(=O)OCc2ccc(C(=O)OC)o2)cc(Br)c1OC,0.1
O=S(=O)(NCC(c1ccccc1)N1CCNCC1)c1ccc(Cl)cc1 (configuration not stated),0.3
Cc1cc(C)n(-c2nc3ccccc3c(=O)n2OCc2ccc(F)cc2)n1,0.2
CC(C)NC(=S)NNC(=O)C12CC3CC(CC(C3)C1)C2,2.5
CCCCN(CC)S(=O)(=O)c1ccc(C(=O)Nc2nnc(COC)o2)cc1,1.8
OCCN1CCN(C(=S)c2ccc(Br)cc2)CC1,0.5
C=CCn1c(-c2ccc3[nH]c(C)c(C)c3c2)n[nH]c1=S,0.5
COc1cccc(Nc2nc(-c3ccc4c(c3)OCCO4)cs2)c1,1.3
CCCC(=O)Nc1ccc(Cl)c(NC(=O)C(C)(C)C)c1,0.2
# (next part)
SMILES,H5N1 antiviral
COc1ccccc1Nc1nc(N)nc(CSc2ncccn2)n1,i
CCOC(=O)N1CCN(c2cc(=O)n(-c3ccc(OC)cc3)c(=O)[nH]2)CC1,0.1
CCOc1ccccc1Oc1coc2cc(OC)ccc2c1=O,i
CC(C)Oc1ccc2nnnn2n1,0.8
CCn1cnc2c1c(=O)n(CC(=O)N1CCc3ccccc31)c(=O)n2Cc1ccccc1,i
O=C1CCCc2c1nc(-c1ccco1)n2O,1.0
Cc1ccc(C(=O)COC(=O)CNC(=O)C(c2ccccc2)c2ccccc2)cc1[N+](=O)[O-],i
Cc1nc2cc(S(=O)(=O)N3CCC(C(=O)O)CC3)ccc2n1C1CCCC1,i
c1ccc(Oc2ncnc3oc(-c4ccccc4)cc23)cc1,i
Cc1cccn2cc(CCNC(=O)c3ccco3)nc12,0.8
